StopGo FLuc – Primary qHTS Assay for Foot and Mouth Disease Virus Antivirals against NCGC Sytravon and CBC Compound Libraries: Firefly Luciferase Signal. HEK cells with a luciferase reporter of 2A StopGo recoding. Potency, µM (titrated, usually from 57.5 µM), for inactives: at the highest dose signal change, negative = less light. hit rate 0.23% among 120,000. AID 1745856, 2022; active = well fitted falling curve with a large enough effect; inconclusive = small, poorly fitted or top-dose-only effect; inactive = no such curve, though single readings can be large or run the other way; further: nearly all actives have a fitted effect of over 60% in size; overnight with compound
2A Renilla – Primary qHTS Assay for Foot and Mouth Disease Virus Antivirals against NCGC Sytravon and CBC Compound Libraries: Renilla Luciferase Signal; HEK cells with a luciferase reporter of 2A StopGo recoding; Potency, µM (top dose mostly 57.5 µM), for inactives: at the highest dose signal change, negative = less light; hit rate 0.32% among 120,000; AID 1745857, 2022; active means well fitted falling curve with a large enough effect; inconclusive means small, poorly fitted or top-dose-only effect; inactive means no such curve, though single readings can be large or run the other way; further: nearly all actives have a fitted effect of over 55% in size; overnight with compound
Active calls of the source: *; ? = inconclusive; & = joins results of further samples; [ ] = remark or other dose. On the % scale 0 is the no-effect control and ±100 the full control effect; potency means the concentration at half of the fitted maximal effect. An excerpt; count on the stated rates, not on these rows.

Values run as follows: StopGo FLuc | 2A Renilla
COc1ccc(-c2cn3c(n2)sc2cc(C(=O)NCc4ccccc4OC)ccc23)cc1
    0% | -8%
CCN(CC)c1ccc2cc(-c3nc(-c4ccc(Cl)cc4Cl)cs3)c(=O)oc2c1
    -18% | -6%
O=C1CCc2cc(S(=O)(=O)NCc3ccccc3Cl)cc3c2N1CC3
    -1%&3% | 38%&89%[activator]
Cc1cc(-c2nnn(CC(=O)NC(N)=O)n2)ccc1F
    2% | 3%
CCOC(=O)C1CCN(c2nc(-c3ccc(OC)c(OC)c3)nc3cc(OCC)c(OC)cc23)CC1
    12% | 20%
O=C(CSc1ncccn1)c1ccc2c(c1)OCCO2
    125%[activator] | -13%[1.06 µM]
CCOc1ccc(S(=O)(=O)N(C)CC(=O)N2CCOCC2)cc1C
    -2% | 1%
N#CCCN(C(=O)CSc1nnnn1-c1ccc(O)cc1)c1ccccc1
    3% | 21%
O=C(Cn1cnc2c(nnn2Cc2ccc(F)cc2)c1=O)Nc1ccc2c(c1)OCO2
    -6% | -10%
COc1ccc(NC(=O)c2cc(-c3ccccc3F)no2)cc1
    73%[activator] | 19%
NNc1ccc(S(=O)(=O)c2ccc(NN)cc2)cc1
    0% | 21%
COC(=O)COc1cccc(C(=O)Nc2ccc(-c3nc4ccccc4o3)cc2)c1
    60%[activator] | -11%
CCOC(=O)c1cnn(-c2ncnc3sc4c(c23)CCC4)c1N
    3% | 0%
Cc1ccc(Cl)cc1NC(=O)c1csnn1
    -4% | 6%
O=C(CSc1nc2c(oc3ccccc32)c(=O)n1-c1ccccc1)Nc1ccc(F)c(Cl)c1
    -18% | -15%
CS(=O)(=O)c1ccc2nc(NC(=O)CS(=O)(=O)c3ccc(Cl)cc3)sc2c1
    0% | -8%
COc1cccc(CNC(=O)CCc2c(C)nc3c(c(C)nn3-c3ccc(C)c(C)c3)c2C)c1
    -1% | -4%
O=C(CSc1nccn1Cc1ccc2c(c1)OCO2)Nc1nccs1
    68%[activator] | 2%
Cc1ccsc1C(=O)c1ccccc1
    -2% | 0%
CC(C)CN(CC(C)C)C(=O)CC(c1ccccc1)c1ccccc1
    6% | 18%
COc1ccccc1-c1c(C)nn2c(N3CCN(c4ccc(Cl)cc4)CC3)cc(C)nc12
    -17% | -15%
CSc1ccc(C2c3c(-c4ccccc4O)n[nH]c3C(=O)N2CCO)cc1 (stereo not given)
    -9% | 0%
Cc1cc(C)c2nc(-c3cccnc3)cc(C(=O)O)c2c1
    ? | 19%&40%
O=C1NC2(CCCC2)C(=O)N1Cc1ncc(-c2ccc(F)cc2)o1
    127%[activator] | 1%
CCc1ccc(-c2cc(C)no2)cc1S(=O)(=O)N1CCN(c2cccc(Cl)c2)CC1
    28% | 120%[activator]
CCN(c1ccccc1)c1nnc(NC(=O)Nc2ccc(C)cc2)s1
    -9% | -12%
CC(C)C(=O)Nc1nnc(S(=O)(=O)N2CCc3ccccc32)s1
    -11% | -5%
Cn1c(SCC(N)=O)nnc1-c1cc2c(s1)CCC(C(C)(C)C)C2 (stereo not given)
    175%[activator] | 45%[activator]
Cc1nc(-c2ccc(S(=O)(=O)Nc3ccc(F)c(F)c3)cc2)co1
    12% | 149%[activator]
CCOc1ccc(CNC(=O)c2ccc3c(c2)sc2nc(-c4ccccc4)cn23)cc1
    81%[activator] | 5%
CC1=C(c2ccc(Cl)cc2)S(=O)(=O)N=C1N1CCC(C(=O)NCc2ccccc2F)CC1
    -10% | 0%
CCC(=O)NCCCNC(=O)c1cc(-c2ccccc2)nc2ccccc12
    29% | 30%
COC(=O)c1ccc2nc(C)cc(Nc3ccc(C)c(C)c3)c2c1
    -6% | 7%
CCOc1ccc(Nc2oc(-c3ccccc3)nc2C#N)cc1
    124%[activator] | 0%
Cc1nn(CC(=O)NCc2ccco2)c(=O)c2nn(-c3ccccc3)c(C)c12
    -23% | -18%
CCCCn1c(N)c(N(C)C(=O)c2ccc(-c3ccccc3F)o2)c(=O)[nH]c1=O
    50%[activator] | -13%
CCN(CC)S(=O)(=O)c1ccc(=O)n(Cc2noc(C)n2)c1
    9% | -2%
CN(C)c1nc2c(c(=O)n(C)c(=O)n2C)n1CCc1ccccc1
    -7% | -5%
COc1cccc(/C=C(\C#N)c2nc3ccccc3o2)c1
    89%[activator] | 146%[activator]
CC[C@H](C)NC(=O)c1ccc2nc(-c3ccc(C)cc3)cc(OC)c2c1
    ? | ?
Cc1nc(/N=C(\N)NC(=O)Cc2ccccc2)nc2ccccc12
    20% | 9%
O=C(Cn1nnc(-c2ccc(F)cc2)n1)N(Cc1cccs1)c1ccc2c(c1)OCCO2
    -7% | -5%
Cc1cccc(Cn2c(SCc3ccc(C(=O)NCc4ccccc4)cc3)nc3cccnc32)c1
    -11% | 32%[activator]
CCc1ccc(-n2c(=O)c3ccccc3n(CC(=O)NCCc3ccc(OC)c(OC)c3)c2=O)cc1
    8% | -4%
CC1CCCCC1NC(=S)NCC(C)(C)N1CCOCC1 (stereo not given)
    -11% | 11%
Cc1ccc(C(=O)/C=C/C=C/c2cccs2)cc1
    0% | 5%
Cc1oc(C)c2c(=O)cc(-c3ccc4c(c3)OCO4)cc(OC(=O)c3cccc(Cl)c3)c12
    -8% | -9%
COc1cccc(C2=NN(S(=O)(=O)c3ccccc3)C(c3ccc4nccnc4c3)C2)c1 (stereo not given)
    26% | 1%
O=C(CCN1CCN(C(c2ccccc2)c2ccccc2)CC1)NNC(=O)Cc1ccc(Cl)cc1
    -14% | -8%
Cc1nccc(CNC(=O)c2ccc3ncsc3c2)n1
    2% | 2%
COc1ccc(Cl)cc1CN(C)C(=O)c1cc(OC)c(C)c(OC)c1
    -9% | 85%[activator]
C=CCNC(=O)NCc1cccc(C(N)=O)c1
    2% | 9%
COc1ccc(Cc2nnc(NC(=O)C3CC(=O)N(c4ccc(C)c(Cl)c4)C3)s2)cc1OC (stereo not given)
    2% | -8%
N#C/C(=C/c1cccc(C#N)c1)c1nc2ccccc2[nH]1
    79%[activator] | 40%[activator]
Cc1csc(SCC(=O)c2ccc(O)cc2O)n1
    155%[activator] | 18%
CCCCn1c(=O)c2oc3ccccc3c2n(CC(=O)Nc2cccc(Cl)c2C)c1=O
    -7% | -8%
O=C(Cn1ncc2c3ccccc3n(Cc3cccc(Cl)c3)c2c1=O)Nc1ccc(F)cc1F
    15% | 3%
CCOC(=O)c1c(-c2ccccc2)nc2ccccc2c1-c1ccccc1
    -3% | 4%
COc1cc(OC)cc(C(=O)Nc2ccc3oc(-c4cc(OC)c(OC)c(OC)c4)nc3c2)c1
    31%[activator] | 38%[activator]
Cc1cccc(OCC(=O)Nc2ccc3c(c2)nc(CN2CCCCC2)n3C)c1
    ? | -11%

3 entries drawn at random from the list so far, as already listed:
Values run as follows: StopGo FLuc | 2A Renilla
O=C(CCN1CCN(C(c2ccccc2)c2ccccc2)CC1)NNC(=O)Cc1ccc(Cl)cc1
    -14% | -8%
CC1CCCCC1NC(=S)NCC(C)(C)N1CCOCC1 (stereo not given)
    -11% | 11%
Cc1nn(CC(=O)NCc2ccco2)c(=O)c2nn(-c3ccccc3)c(C)c12
    -23% | -18%

Remaining list, next part:
Values run as follows: StopGo FLuc | 2A Renilla
CC(C)NC(=O)c1cccc2c1CCCN2CC(=O)NC(C)c1ccccc1 (stereo not given)
    -3% | -12%
Cc1cccc(C)c1NC(=O)CN(C)C(=O)CSc1nccn1-c1ccc(Br)cc1
    -4% | -3%
CCCCCCn1c(NC)nc2c1c(=O)n(C)c(=O)n2C
    ? | ?
CCOC(=O)c1[nH]c(C)c(CCC(=O)NCc2cccc(C)c2)c1C
    3% | 19%
CCc1ccccc1-n1c2c(cc(-c3nc(-c4ccc(Cl)cc4)cs3)c1=O)C(=O)CC(C)(C)C2
    -2% | -8%
C=C(C)[C@H]1CN[C@H](C(=O)O)[C@H]1CC(=O)O
    -11% | -4%
COc1cc(CC(=O)Nc2ccccc2-c2ccccc2)ccc1C
    8% | 6%
COCc1ccc(C(=O)Nc2cccc(C(=O)Nc3cccc(C(F)(F)F)c3)c2)cc1
    -6% | -12%
COc1cc(/C=C2\N=C(SC)SC2=O)cc(OC)c1OC
    0% | 17%[1.06 µM]
NS(=O)(=O)c1ccc(CCNS(=O)(=O)c2ccc(F)cc2)cc1
    -1% | 30%[activator]
Nc1ccc(OCC2CC2)c(F)c1
    121%[activator] | 12%
C=C(C)Cn1c(N2CCN(CC(=O)OC)CC2)nc2c1c(=O)[nH]c(=O)n2C
    -3% | -4%
Cc1ccc(NS(=O)(=O)c2ccc(-n3cccn3)cc2)cc1Cl
    13% | 356%[activator]
Cc1ccc(C2C(C#N)=C(N)Oc3cc(C)oc(=O)c32)o1 (stereo not given)
    -11% | -13%
Cc1cc(C)n(-c2ccc(=O)n(CC(=O)Nc3ccc(C(C)(C)C)cc3)n2)n1
    -16% | -24%
CCC(C)C(=O)NCCc1c[nH]c2ccc(C)cc12 (stereo not given)
    14% | 8%
CCCCn1c(=O)[nH]c(=O)c2c1nc(CSc1ncn[nH]1)n2CC
    11% | 5%
CCOc1ccccc1-c1noc(CCCC(=O)Nc2cccc(C(F)(F)F)c2)n1
    5% | 14%
C#CCNC(=O)Nc1ccc(C)cc1
    98%[activator] | 2%
CC/C=C(/C)C(=O)NC1CCN(C(=O)C(C)(C)C)CC1
    0% | -2%
CCOc1ccc(OCC)c(NC(=O)C2CCCN(S(=O)(=O)c3ccc4c(c3)oc(=O)n4C)C2)c1 (stereo not given)
    ? | -4%
CC(=O)c1cccc(NC(=O)Cn2nc(C)n3cccc3c2=O)c1
    0% | 6%
Cc1nc(NCCC(C)C)sc1C(=O)NC1CC1
    108%[activator] | -7%
COc1ccc(C(=O)N/C(=C\c2cn(S(=O)(=O)N(C)C)c3ccccc23)C(=O)NC(C)C)cc1
    0% | 2%
O=C(CSc1nc2ccsc2c(=O)n1Cc1ccc(F)cc1)NCc1ccc(Cl)cc1
    -10% | -14%
Cc1ccc2nc(C3=C(O)CN(c4cc(Cl)cc(Cl)c4)C3=N)[nH]c2c1
    11% | 5%
CC(=O)c1ccc(NC(=O)c2noc3c2CSc2ccccc2-3)cc1
    -5% | ?
CC1N=C2c3ccccc3N=C(SCC(=O)NCc3ccc(Cl)cc3)N2C1=O (stereo not given)
    -9% | 16%
O=C(Cc1cccs1)N1CCN(c2ncnc3c2nnn3-c2ccc(F)cc2)CC1
    26% | 4%
Cc1nccn1CC(C)CNC(=O)c1cc(-c2ccncc2)nc2ccccc12 (stereo not given)
    -6% | -12%
COC(=O)c1c(Oc2ccc(C(C)=O)cc2)nnc(-c2ccccc2)c1-c1ccccc1
    -6% | -10%
CCOc1ccc(-c2nnc(SCC(=O)NC3CCCC3)nc2-c2ccc(OCC)c(OC)c2)cc1OC
    -16% | -7%
COCCn1c(C)cc(C(=O)CSc2nnc(Nc3ccccc3)s2)c1C
    16% | 7%
CCc1ccc(C2C(C(=O)Nc3ccccc3)=C(C)Nc3c(C(=O)Nc4ccc(F)cc4)cnn32)cc1 (stereo not given)
    -5% | -1%
CC1CCc2onc(C(=O)N3CCN(c4ccc(Cl)cc4)CC3)c2C1 (stereo not given)
    -14% | 0%
C=CCn1c(NCCCOCC)nc2c1c(=O)[nH]c(=O)n2C
    5% | -3%
CCn1c2c(c(=O)n3ncc(C(=O)Nc4ccc(F)c(Cl)c4)c13)CN(Cc1ccc(OC)cc1)CC2
    -8% | -4%
CCOC(=O)c1cc2cc(Oc3cccc(C)c3)ccc2[nH]1
    175%[activator] | 55%[activator]
O=C(Cn1ncc2ccc(Cl)cc21)NCc1ccc(F)cc1
    14% | -8%
C/C=C/c1ccccc1OCc1ccc(C(=O)O)cc1
    78%[activator] | 1%
CCN(Cc1cccs1)C(=O)/C=C/c1nc2ccccc2s1
    0% | -1%[1.06 µM]
O=C(NCc1ccccc1)C(=O)c1cn(CC(=O)N2CCOCC2)c2ccccc12
    19% | -4%
COCCNc1oc(-c2cccc(Cl)c2)nc1S(=O)(=O)c1ccc2c(c1)OCCO2
    15% | 183%[activator]
CC1CCCCN1S(=O)(=O)c1ccc(NC(=O)c2cc(=O)c3cc(Cl)ccc3o2)cc1 (stereo not given)
    2% | -5%
CC(C)Oc1ccc(/C=C(/C#N)c2ccc(C(F)(F)F)cn2)cc1
    0% | 23%
COc1ccc(-c2nsc(NC(=O)COc3ccc(C)c(C)c3)n2)cc1
    -12% | -12%
CCN(Cc1ccccc1)C(=O)CN1C(=O)COc2ccc(S(=O)(=O)N3CCOCC3)cc21
    -18% | 8%
Cc1ccc(NC(=O)c2cc(S(=O)(=O)N(C)C3CCCCC3)ccc2F)cc1C
    0% | 22%
CC(=O)NNC(=S)Nc1ccccc1
    0% | 7%
COC(=O)c1ccc(CCNC(=O)c2cccc(C#N)c2)cc1
    23% | 17%
CC(C)c1nc2ccc(C(=O)NCCCN3CCN(c4ccc(F)cc4)CC3)cc2o1
    55%[activator] | 3%
O=C(Nc1cccc(C(=O)N2CCN(c3ccccc3F)CC2)c1)c1nsc2ccccc12
    82%[activator] | 39%[activator]
NC(=O)NC(=O)CSc1nc2ccccc2c(=O)n1-c1ccccc1Cl
    2% | 5%
CCOCCCNC(=O)C(c1ccccc1)N1Cc2ccccc2C1=O (stereo not given)
    -18% | 4%
CC(=O)Nc1scc(-c2ccc(CC(C)C)cc2)c1C#N
    175%[activator] | 12%

High-throughput results as filed in PubChem BioAssay.
